Compound activity from PubChem BioAssay.
AF4-AF9 inh – blocks AF4 peptide binding to human AF9. P42568. AlphaScreen, biotin-AF4 peptide binding to FLAG-AF9. inhibition, % at 10 µM. AID 651704. hit rate 0.47% among 350,000;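 active = every replicate reaching a set inhibition limit, whatever the replicate mean, cut at about 25% in these data; inconclusive = mean inhibition reaches that limit but some replicates miss it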;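 note: 0% = plate neutral control median and 100% = total signal loss; the record names both 10 and 1 µM as test concentration; the first replicate is given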
Target sequence (P42568 whole entry, looked up): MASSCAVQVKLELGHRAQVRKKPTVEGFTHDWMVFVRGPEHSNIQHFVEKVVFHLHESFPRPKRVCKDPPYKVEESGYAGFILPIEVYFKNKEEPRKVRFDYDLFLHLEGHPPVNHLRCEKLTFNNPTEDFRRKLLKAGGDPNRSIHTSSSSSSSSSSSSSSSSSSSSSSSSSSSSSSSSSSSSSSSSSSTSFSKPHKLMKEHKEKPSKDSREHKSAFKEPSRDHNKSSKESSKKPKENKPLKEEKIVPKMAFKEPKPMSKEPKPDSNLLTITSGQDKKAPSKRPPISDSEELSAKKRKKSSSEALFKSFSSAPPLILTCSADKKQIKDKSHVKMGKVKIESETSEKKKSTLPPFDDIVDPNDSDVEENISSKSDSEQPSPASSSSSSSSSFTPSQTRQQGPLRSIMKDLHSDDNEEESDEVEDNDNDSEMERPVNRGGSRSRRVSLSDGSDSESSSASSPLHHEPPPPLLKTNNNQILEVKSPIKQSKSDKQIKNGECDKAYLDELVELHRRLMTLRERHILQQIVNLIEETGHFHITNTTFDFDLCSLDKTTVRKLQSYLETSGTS
Calb FLC – affects C. albicans growth with fluconazole; C. albicans CaCi-2 (fluconazole-resistant clinical isolate) + fluconazole, Alamar Blue growth, 48 h; growth inhibition, % (test concentration not listed); hit rate 0.57% among 300,000; AID 1979;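 active = most replicates above 75%; inconclusive = exactly half above 75%; inactive = most below 75%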;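 note: all wells also contain fluconazole at 8 µg/ml as a sub-toxic cotreatment; 0% = median of DMSO wells and 100% = median of geldanamycin control wells; wells of about 8 µL received 7.5 nL stock; the first replicate is given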
Beta cell apopt – blocks beta cell apoptosis. AID 435005. protection from apoptosis, % (concentration not given with the values). hit rate 0.8% among 300,000. INS-1E cytokine-induced death, ATP luminescence, 48 h; percent of positive-control rescue, neutral wells zero;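 active = all replicates at 75% or more, or half of them and the mean; inconclusive = half reach 75% but not the mean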;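 note: 0% = cytokine-treated negative control wells and 100% = positive control rescue; higher means more ATP so stronger rescue from cytokine killing; wells of about 40 µL received 100 nL stock; the first replicate is given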
rRNA inh HTS – inhibits bacterial ribosomal RNA function over humanized ribosomes; GFP signal change (wild-type ribosome), % (concentration not given with the values); hit rate 1.6% among 350,000; E. coli WT GFP vs humanized-ribosome RFP mutants, fluorescence, 24 h; hits give low values; DMSO median 0, no signal -100;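 active = significant combined selectivity score with lowered wild-type GFP, culture density cut under 30%, mutant RFP and density less affected; inactive = any of these conditions unmet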; note: one replicate is shown; some compounds called inactive have numbers as strong as hits
RanGTP-Impb inh – disruptors of Ran-importin-beta complex formation – biochemical, FRET, CFP-Ran, YFP-importin-beta, homogeneous, primary screen | hit rate 1.1% among 300,000 | cell-free CFP-Ran/YFP-importin-beta FRET ratio | inhibition, % (test concentration not listed);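 active = most replicates above 15%; inconclusive = exactly half above 15%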;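 note: 0% = DMSO wells and 100% = Ran loaded with GDP instead of GTP; wells of about 40 µL received 100 nL stock; the first replicate is given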
T cruzi inh – blocks replication of Trypanosoma cruzi; T. cruzi beta-gal in NIH3T3, luminescence, 90 h; hit rate 1.4% among 300,000; inhibition, % (no concentration beside the values);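 active = mean inhibition across valid replicates above about 55%, limit read from the data; inconclusive = mean below that limit but half or more replicates reach it; inactive = mean below it, under half of replicates reach it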;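 note: signal also drops with host cell toxicity which is not excluded here; 0% = plate median of DMSO wells and 100% = zero luminescence signal; higher percent means less beta-gal luminescence so fewer parasites; stock transfer was 50 nL into about 50 µL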
Vif A3G – inhibitors of Vif binding to APOBEC3G peptide, primary screen, biochemical, TR-FRET, GST-Vif 1-94, biotin-A3G peptide, dose response retest (AID 1117319) | TR-FRET GST-Vif / biotin-A3G peptide binding; higher % means a stronger effect; test concentration not given here; strong numbers were not always called active | inhibition, %, or IC50 in µM where a hit was titrated | hit rate 0.57% among 260,000;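 active = above the screen mean plus three standard deviations and confirmed in dose response; inconclusive = results disagree or hit not tested in dose response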;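 note: Vif residues 1-94 fused to GST binding biotinylated APOBEC3G peptide 110-148; 0% = full assay without inhibitor and 100% = GST in place of GST-Vif; retest series ran down from 100 µM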
Bfl-1 A1 inh – inhibitors of the anti-apoptotic protein A1, read as caspase activation; hit rate 0.066% among 330,000; MEF A1-2A-BIM cells, Caspase-Glo 3/7 luminescence, 3 h; percent of clofoctol response, vehicle zero; caspase activation, % (concentration not given with the values);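 active = over half of replicate activation scores above 10%, or exactly half above 10 with the replicate mean above 10; inconclusive = replicate mean below 10 yet half the replicates above 10; inactive = over half of replicates below 10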;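 note: wells of about 30 µL received 50 nL stock; many hits fall short of the cut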
rRNA inh HTS OD600 – further read-out of rRNA inh HTS, marked with its call; OD600 change, %; measured here: OD600 growth;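 optical density of the mix in the first replicate; 0 = DMSO median and -100 = no signal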
rRNA inh HTS RFP – further read-out of rRNA inh HTS, marked with its call; RFP signal change, %; measured here: RFP humanized mutant strains;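 first replicate; 0 = DMSO median and -100 = no signal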
* marks the source's active call; other numbers are inactive results; ? = inconclusive; / = no result given; & = joins results of further samples.

SMILES	AF4-AF9 inh	Calb FLC	Beta cell apopt	rRNA inh HTS	rRNA inh HTS OD600	rRNA inh HTS RFP	RanGTP-Impb inh	T cruzi inh	Vif A3G	Bfl-1 A1 inh
CCn1c(Cc2ccccc2)nnc1SCC(=O)N1CCCC1=O	-1.6	0	-5	3	3	-1.0	-0.1	-7	/	-0.2
COc1ccc2c(c1OC)C(=O)NC(C)=C(C(=O)OC(C)(C)C)C2O (stereo unspecified)	-0.6	8	-5	/	/	/	-3.9	-11	0%	-0.6
CCCC(C)NC(=O)CSc1nnc2ccccn12 (stereo unspecified)	-4.3	-6	-6	17	21	4.0	-1.0	-7	/	-0.2
Cc1cc(C)cc(NC(=O)Cn2nnc(C(=O)NCc3ccccc3Cl)c2N)c1	0.5	3	13	2	-6	1.6	-0.7	1	/	1.0
CC(C)N(C(=O)CSc1nnnn1-c1ccc2c(c1)OCO2)C(C)C	-0.5	-13	/	2	-11	-3.4	3.5	12	1%	-1.1
Cn1nc(C(=O)N2CCN(c3ccc(F)cc3)CC2)c2c1-c1ccccc1S(=O)(=O)C2	-1.9	3	1	-12	-15	-4.1	-0.3	-6	13%	1.7
O=[N+]([O-])c1ccc(/C=N\NS(=O)(=O)c2ccc(F)cc2)o1	-0.6	-4	-8	0	0	-0.1	?	7	/	0.7
Cc1sc2nc(CN3CCOCC3)nc(N3CCC(C(N)=O)CC3)c2c1C	/	5	-7	/	/	/	2.6	-3	/	0.3
CCOc1ccc(NC(=O)CN(C)S(=O)(=O)c2cccc3cccnc23)cc1	-0.1	27	4	-6	-8	0.7	-0.8	-3	-2%	0.3
COC(=O)C1C(=O)OC(C)(C)C1C(C)C(=O)c1ccc(C)cc1C (stereo unspecified)	-0.8	-30	-3	2	1	0.7	-3.1	-2	-6%	-0.9
CSCCC(NS(=O)(=O)c1ccc(C)cc1)C(=O)NC1CCCCCC1 (stereo unspecified)	-0.8	-8	-2	-14	-22	2.2	-0.4	7	-7%	0.1
CCOC(=O)C(C)On1c(SC(C)C(=O)OCC)nc2ccccc2c1=O (stereo unspecified)	/	0	-8	/	/	/	4.2	-12	23%	-0.3
CC1CCc2sc(C(=O)NCCCn3ccnc3)cc2C1 (stereo unspecified)	-1.0	7	15	-6	-12	-1.8	6.2	-7	/	-1.1
O=C(CSc1ncnc2ccccc12)N1CCNC1=O	3.3	/	-1	5	3	-2.5	/	/	/	0.2
COc1ccccc1NC(=O)OC(C)c1ccc(Cl)cc1 (stereo unspecified)	-33	8	2	0	-8	-0.8	1.0	-11	-1%	-0.2
O=C1Nc2ccc(Br)cc2/C1=C/c1ccc(C(=O)O)cc1	/	3	-6	/	/	/	-0.6	-4	/	1.1
CCN1C(=O)c2c(C)nc3ccccc3c2C1=O	-96	5	3	20	10	-2.0	5.8	-7	38%	0.8
O=C(C[n+]1cc(-c2ccc(Cl)c(Cl)c2)n2c1CCC2)OCc1ccccc1	4.0	-1	3	-14*	11*	-1.5*	-3.4	4	-3%	-0.4
CC(=O)NCCC(=O)Nc1cc(S(=O)(=O)N2CCCCC2)ccc1N1CCCCC1	-0.6	/	-5	11	8	1.5	/	/	3%	1.1
Cc1ccc(NC(=O)CSc2nc3[nH]ncc3c(=O)[nH]2)cc1Cl	-8.6	-1	/	2	2	-2.8	-1.8	-5	-6%	0.5
O=C(C1=C[C@H](c2ccc(C(F)(F)F)cc2)C[C@H](OCc2ccc(CO)cc2)O1)N1CCN(Cc2ccccc2)CC1	1.9&1.0	10	/	-1	0	-5.1	-1.9	40	16%	-1.2
CCOC(=O)N1CCN(S(=O)(=O)c2ccc(Br)cc2)CC1	-10	2	0	5	8	6.2	-4.3	-11	/	-0.9
CCN1CCN(CCCCSc2ccccc2)CC1	/	-16	-4	/	/	/	-0.4	39	5%	-0.1
O=C(N=C1SC2CS(=O)(=O)CC2N1c1ccc(Cl)cc1Cl)C1CCCO1 (stereo unspecified)	-1.2	12	0	4	9	1.1	3.4	-21	5%	0.2
O=C(CSC1=NS(=O)(=O)c2ccccc2N1)c1ccccc1	0.0	3	/	-7	-8	-1.2	-2.6	-2	1%	0.3
SMILES	AF4-AF9 inh	Calb FLC	Beta cell apopt	rRNA inh HTS	rRNA inh HTS OD600	rRNA inh HTS RFP	RanGTP-Impb inh	T cruzi inh	Vif A3G	Bfl-1 A1 inh
COc1cccc(OC)c1C(=O)Nc1ccccc1N1CCCC1	/	11	0	/	/	/	0.9	0	4%	-1.5
O=C1c2ccccc2S(=O)(=O)N1CC(O)Cn1ccc2ccccc21 (stereo unspecified)	/	3	2	/	/	/	-1.2	22	-20%	-0.2
N#Cc1nc(-c2ccc(OCc3ccc(Cl)cc3)cc2)oc1N1CCC(C(N)=O)CC1	4.5	-1	-4	3	5	-4.1	1.5	3	-1%	0.4
Cc1cc(C)c(C#N)c(N2CCN(c3ccccc3)CC2)n1	0.9	-28	-1	-26*	-10*	4.1*	?	3	-8%	1.1
CCN1CCCC1CNCc1cc(OC)c(OC)c(OC)c1 (stereo unspecified)	9.5	1	-6	14	11	-1.1	-0.6	6	3%	0.7
CCCNC(=O)c1ccc2c(c1)C1C3CCC(C3)C1C(c1ccccc1)N2 (stereo unspecified)	/	50	2	/	/	/	-0.7	11	>100µM*	2.0
Cn1ccnc1SCC(=O)Nc1nc2ccccc2s1	3.4	-1	-6	-5	1	8.8	0.4	-10	/	-0.1
CCOC(=O)N1CCN(CC(O)COc2ccc(C)c(C)c2)CC1 (stereo unspecified)	2.5	1	2	5	1	-1.5	8.4	3	-4%	0.9
c1ccc2c(-c3cncc4ccccc34)cncc2c1	1.3	-3	-10	-9	-14	-1.5	1.5	23	/	0.4
COc1ccccc1CN(C)C(=O)c1ccccc1SCC(=O)N1CCCC1	3.4	/	-3	1	-6	3.9	/	/	-2%	-0.4
CCOc1ccc(-c2nc(C#N)c(N3CCCCCC3)o2)cc1	16	-6	2	-12	-13	-3.0	0.6	36	-2%	-0.2
O=C(COC(=O)Cn1nnc(-c2ccccc2)n1)Nc1cc(F)ccc1F	-3.2	/	-2	6	10	-2.3	/	/	-2%	1.1
O=C(CNC(=O)C1CCCCC1)OCC(=O)c1ccc(Br)cc1	-4.5	1	/	1	2	-0.1	?	-3	/	/
COc1ccc(CNc2nc(NCc3ccc(OC)cc3)c3[nH]cnc3n2)cc1	-15	20	-4	2	1	17	3.1	-5	-5%	-0.8
COc1ccccc1CC(=O)N1CCC(CCC(=O)NC2CC2)CC1	-0.3	-4	-5	-4	1	-1.5	-2.0	-9	/	1.2
CC1CC(C)CN(C(=O)COC(=O)Cc2ccc(Br)cc2)C1 (stereo unspecified)	0.7	-10	5	2	19	7.4	1.5	-13	-3%	0.3
COc1ccccc1N1C(=O)C2C(c3ccc(F)cc3)NN(C(=O)c3ccc(C)cc3)C2C1=O (stereo unspecified)	2.7	3	-4	9	6	2.2	-3.4	-8	/	0.2
Cc1ccc(CN2CCN(C(=O)CCc3ccccc3)CC2)cc1	0.4	-22	/	-1	3	-2.3	-0.2	-1	/	1.0
O=[N+]([O-])c1cccc(C2=NC(c3ccccc3)CO2)c1 (stereo unspecified)	3.0	4	-2	10	23	-5.9	-1.5	-18	26%	-1.3
COc1cc2ccccc2cc1C(=O)Nc1ccncc1	-2.3	18	/	-11	-27	-3.3	3.0	7	-8%	-0.8
O=C(NCc1ccccn1)c1cc(S(=O)(=O)N2CCCCCC2)ccc1Cl	4.5	/	-2	4	4	0.3	/	-1	/	-0.2
O=C(CSc1nnc(-c2ccncc2)n1Cc1ccccc1)NC1CCCCC1	-4.3	-1	-3	4	-1	2.1	2.5	17	4%	0.0
CCOc1cc(C(=O)NCCCn2ccnc2)cc(OCC)c1OCC	-3.4	12	3	10	8	2.2	-2.8	4	-1%	1.1
O=C(NCc1ccccc1)C1(C(F)(F)F)CC(CCCO)CCCO1 (stereo unspecified)	-2.1	4	-2	3	-2	1.2	-6.8	14	/	-1.1
COc1ccc(CCNC(=S)Nc2ccc(S(=O)(=O)Nc3ncccn3)cc2)cc1OC	0.3	-4	-3	-1	10	-1.4	2.0	6	-5%	-0.3
SMILES	AF4-AF9 inh	Calb FLC	Beta cell apopt	rRNA inh HTS	rRNA inh HTS OD600	rRNA inh HTS RFP	RanGTP-Impb inh	T cruzi inh	Vif A3G	Bfl-1 A1 inh
CCOCC(=O)Nc1nnc(COc2ccc(Cl)cc2)s1	/	-5	-2	/	/	/	0.2	-1	9%	0.3
COc1ccc(-c2cc(CNS(=O)(=O)c3ccccc3)on2)cc1	-1.9	1	-4	-27	-26	0.4	0.9	1	?	0.3
O=C1NC(=O)c2cc(NC(=O)c3cccc4ccccc34)ccc21	-0.3	-5	-7	13	16	-0.8	-1.2	-3	/	0.3
CCCCn1c(=O)[nH]c(=O)c2c1nc(-c1ccsc1)n2Cc1ccccc1	/	-1	5	/	/	/	1.3	3	-31%	-1.4
COc1ccccc1C(=O)NCCC(=O)Nc1ncccc1C	2.7	36	-11	7	15	2.6	-1.2	8	/	-0.1
CC(C)(C)c1nnc(NC(=O)COc2ccc3c(c2)OCO3)s1	-0.4	2	-3	-2	3	-3.3	0.3	-10	/	2.1
O=C1CCC(C(=O)N2CCOCC2)CN1Cc1ccc(Cl)cc1 (stereo unspecified)	2.0	14	34	10	7	-3.2	3.7	-4	2%	0.1
CC(OC(=O)c1cccs1)C(=O)NC1CC1 (stereo unspecified)	-7.4	-1	1	11	10	1.2	2.7	-12	-6%	0.1
Cc1ccc2c(c1)c(C)cc(=O)n2CCC(=O)O	-4.3	16	-3	7	2	1.8	1.8	-8	29%	-0.1
CCNC(=O)COC(=O)C1C(C(=O)OCC)=C(C)NC(C)=C1C(=O)OCC	/	-6	2	/	/	/	-3.3	6	-8%	0.5
CC(/C=C1\SC(=S)N(NC(=O)c2ccc(C)cc2)C1=O)=C\c1ccccc1	/	-39	/	/	/	/	-2.1	-3	-5%	0.2
Cc1cc(OC(=O)c2ccccc2Cl)cc(=O)n1C	/	-3	1	/	/	/	-0.9	-2	-5%	1.3
CCCC(=O)N1CCc2[nH]c3ccccc3c2C1	/	1	-2	/	/	/	29*	6	?	0.0
Cc1ccc(Sc2cc(NCCCO)c([N+](=O)[O-])c3nonc23)cc1	3.6	0	-11	-11	-4	-5.8	-2.9	56*	9%	0.9
COc1ccc(NC(=O)c2c(Cl)nc3ccccn23)cc1	0.4	-9	3	6	7	0.9	0.0	2	-6%	0.1
CCn1c(SCC(=O)Nc2nccs2)nnc1C1CC1	0.7	/	-12	12	15	-0.7	/	6	2%	1.8

Look-ups from the entries so far:
rRNA inh HTS result of COc1ccc(-c2cc(CNS(=O)(=O)c3ccccc3)on2)cc1 is entered as -27
Bfl-1 A1 inh result of COc1ccccc1C(=O)NCCC(=O)Nc1ncccc1C is entered as -0.1

This is a subset; count on the stated rates, not on these rows.
